NPYLR7 agonist: agonists of mosquito NPYLR7 receptor, primary screen, cell-based, Aedes aegypti, calcium fluorescence, mosquito biting behavior. 0.15% of 270,000 active. HEK293T NPYLR7/Galpha15, GCaMP6s calcium fluorescence. activation, % at 10 µM. AID 1259423, 2018. Aedes aegypti neuropeptide Y-like receptor 7 (NPYLR7); in the data active = activation above about 40%;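 also: 0% = vehicle and 100% = reference agonist at the receptor; some compounds past the cut are filed as inactive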
NPYLR7 agonist max-min: recorded beside NPYLR7 agonist, whose call it bears; activation, %; measured here: Max-Min RFU normalised activation; some inactives read as strong as hits;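 span of the calcium signal over five minutes; 0% = vehicle and 100% = native peptide agonist; compound fluorescence can raise it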
Starred values were filed as active, the others as inactive; & = joins results of further samples. Not all compounds are listed; rates above refer to the full screens.

SMILES	NPYLR7 agonist max-min	NPYLR7 agonist
c1cncc(C2=NCCC2)c1	-10	-6
Cc1cccc(NC(=O)N2CCN(CCOC(c3ccccc3)c3ccccc3)CC2)c1	0	3
Cc1nc2c(c(N3C[C@@H]4C[C@@H](C3)c3cccc(=O)n3C4)n1)CNC2	-20	-18
C[C@]12CC[C@H]3[C@@H](CCC4=CC(=O)CC[C@@]43C)[C@@H]1CC[C@@H]2O	-7	-1
NP1(=O)C=C(c2ccccc2)OC(c2ccccc2)=C1	3	6
Fc1ccc(C2=CCN(Cc3nc(-c4ccc(Cl)cc4)no3)CC2)cc1	7&-2	7&1
O=[N+]([O-])c1ncc[nH]1	-10	-9
CCCCCn1c(=O)c(C(=O)Nc2ccc(I)cc2)c(O)c2ccccc21	-23	-14
CN1CC[C@@H]2CN3CCc4cccc(c43)[C@@H]2C1	-16	-9
CC(C)(C)c1[nH]ncc1C=C(C#N)C#N	-2	-2
Cn1c(O)c(C=NCCCC(=O)O)c(=O)n(C)c1=O	3	6
Cc1onc(-c2ccccc2)c1C(=O)Nc1ccc2[nH]cc(CCN3CCOCC3)c2c1	0	-12
CC(O)CN1CC2CC(C1)c1cccc(=O)n1C2 (configuration not stated)	5	4
COc1ccc(C(=O)C2CCCN(Cc3ccccc3O)C2)cc1F (configuration not stated)	13	13
N=c1sccn1Cc1ccccc1Cl	-8	-4
CC(=O)NCCc1c[nH]c2ccccc12	-8	6
CC(O)=C(C#N)P(=S)(c1ccccc1)c1ccccc1	-12	-11
CC(=O)C1C2NC(=S)NC1(C)Oc1ccccc12 (configuration not stated)	-2	2
C=C(C)[C@@H]1C2C(=O)O[C@H]1[C@H]1OC(=O)[C@@]34OC3C[C@]2(O)[C@@]14C (some centres not stated)	-8	-5
Cc1ccccc1CN1C(=O)C(C)ON=C1c1cccnc1 (configuration not stated)	4	11
O=S(=O)(c1cc(Br)c(Br)s1)N1CCN(CCOC(c2ccccc2)c2ccc(F)c(F)c2)CC1 (configuration not stated)	7	19
COCCNC(=O)c1nn(Cc2ccc(S(=O)(=O)N3CCOCC3)cc2)c2ccccc12	15	7
O=C1NC(=O)C(=O)C(=O)N1	-16	-11
C[C@]12CC[C@H]3[C@@H](CC[C@]4(O)C[C@@H](O)CC[C@]34C=O)[C@@]1(O)CC[C@@H]2C1=CC(=O)OC1	8	11

Single records, as listed above. Order of values: NPYLR7 agonist max-min, NPYLR7 agonist
Cc1ccccc1CN1C(=O)C(C)ON=C1c1cccnc1 (configuration not stated) as listed: 4, 11
CC(O)CN1CC2CC(C1)c1cccc(=O)n1C2 (configuration not stated) as listed: 5, 4
Cn1c(O)c(C=NCCCC(=O)O)c(=O)n(C)c1=O as listed: 3, 6
Cc1nc2c(c(N3C[C@@H]4C[C@@H](C3)c3cccc(=O)n3C4)n1)CNC2 as listed: -20, -18
Fc1ccc(C2=CCN(Cc3nc(-c4ccc(Cl)cc4)no3)CC2)cc1 as listed: 7&-2, 7&1

(next part)
SMILES	NPYLR7 agonist max-min	NPYLR7 agonist
CCN1C[C@@]2(COC)C3[C@@H](OC)[C@H]4[C@@H]1[C@@]3(C1C[C@@]3(O)[C@H](OC(=O)c5ccccc5)C1[C@]4(OC(C)=O)[C@@H](O)[C@H]3OC)[C@@H](OC)C[C@H]2O (some centres not stated)	-9	-5
O=C(O)CCC(CP(=O)(O)O)C(=O)O (configuration not stated)	-16	-12
CC1(C)COC(Nc2ccc(Cl)c(Cl)c2)=N1	9	2
COC(=O)C1C(=N)OC(C)=C(C(=O)OC(C)C)C12C(=O)Nc1ccccc12 (configuration not stated)	3	-1
N#CC(C#N)=Cc1cc(O)c(O)c(O)c1	-15	1
Cc1cc(SCc2sc(-c3ccc(C(F)(F)F)c(F)c3)nc2C)ccc1OCC(=O)O	-16	-11
CCOC(=O)c1ccc(-n2c(C)cc(C=C3C(=O)NC(=O)NC3=O)c2C)cc1	9	6
CC(C)N1CCC2(CC1)NCCc1[nH]cnc12	-1	1
COCCC(=O)Nc1ccc2n(c1=O)C[C@H]1C[C@@H]2CN(C(C)=O)C1	-12	-9
C#CCN(C)S(=O)(=O)c1ccc(Cn2nc(C(=O)Nc3ccc4c(c3)OCO4)c3ccccc32)cc1	21	16
N#Cc1cc(N2CC3CC(C2)c2cccc(=O)n2C3)c([N+](=O)[O-])cc1C#N (configuration not stated)	-21	-15
CNC(=O)C(C1CCCC1)N1CCN(C(=O)Cc2cccs2)CC1 (configuration not stated)	-4	-13
O=C(Nc1ccncc1)c1cccn(Cc2ccccc2Cl)c1=O	9	14
CC(=O)c1cccc(NC(=O)c2cccn(Cc3ccccc3F)c2=O)c1	5	16
COc1ccc(C(=O)Nc2ccc(Cl)cc2C(=O)c2ccccc2)cc1[N+](=O)[O-]	-3	1
C[N+]1(C)CCN(c2ccccc2)CC1	-5&-10	-1&-4
CCOC(=O)[C@H]1CN(C(=O)NC2CCCC2)[C@]2(C)C(=O)N(CC(=O)N(C)C)c3ccccc3[C@H]12	45	34
Cc1ccc(C(=O)N2C[C@H](c3ccccc3)[C@@H]3[C@H]2C2CCN3CC2)c(=O)n1C	9	17
O=c1cc(CN2CC=C(c3ccc(O)cc3)CC2)nc2ccc(Cl)cn12	15	-9
CCC(NC(=O)c1cn(CCN2CCCCC2)nn1)c1ccc(F)cc1 (configuration not stated)	5	19
CCCCC(=O)NC1=C(C(=O)OCC)C2(CCCCC2)Cc2ccccc21	15	23
OC[C@@H]1[C@@H](c2ccccc2)CN2CCN(Cc3ccccc3)C[C@H]12	16	2
O=c1cccc2n1CC1CC2CN(c2nc(NCC3CCCO3)nc(N3CCCC3)n2)C1 (configuration not stated)	-3	0
c1ccc2c(c1)Sc1ccccc1N2CC1CN2CCC1CC2 (configuration not stated)	-29	-18

The last two records of the part before lead into the next:
SMILES	NPYLR7 agonist max-min	NPYLR7 agonist
O=c1cccc2n1CC1CC2CN(c2nc(NCC3CCCO3)nc(N3CCCC3)n2)C1 (configuration not stated)	-3	0
c1ccc2c(c1)Sc1ccccc1N2CC1CN2CCC1CC2 (configuration not stated)	-29	-18
C/C(=C\c1ccc(Cl)cc1Cl)[N+](=O)[O-]	-1	0
Cc1n[nH]c(C)c1CCCNC(C)Cc1ccccc1F (configuration not stated)	15	20
Cc1c(Cl)sc2c1C(=O)C1CCCCN1C2 (configuration not stated)	0	1
O=[N+]([O-])c1cnc(NCCO)c([N+](=O)[O-])c1	3	4
O=C(O)c1cn(Cc2c(F)cccc2F)nn1	6	9
CS(=O)(=O)CC(=O)N1CCCC2(CCNC2)C1 (configuration not stated)	5	9
CCOC(=O)CN(C)C(C)Cc1cc(C)ccn1 (configuration not stated)	1	3
CC(Cc1ccccn1)N(C)Cc1cc2c(cc1Cl)OCO2 (configuration not stated)	-5	-5
CCOC(=O)CCC(=O)N1CCN(CCOC(c2ccccc2)c2cccc(C(F)(F)F)c2)CC1 (configuration not stated)	7	-6
CCOP(=O)(OCC)C(c1ccccc1)N(C)C=O (configuration not stated)	42	-3
O=C1NC(=O)C(=Cc2ccc(-c3ccc(Cl)cc3)o2)C(=O)N1	-10	-6
O=C([C@H]1CCCO1)N1CCCN2CCC[C@H]2C1	6	8

Nothing new here: 3 of the compounds above.
SMILES	NPYLR7 agonist max-min	NPYLR7 agonist
C/C(=C\c1ccc(Cl)cc1Cl)[N+](=O)[O-]	-1	0
Cc1n[nH]c(C)c1CCCNC(C)Cc1ccccc1F (configuration not stated)	15	20
Cc1c(Cl)sc2c1C(=O)C1CCCCN1C2 (configuration not stated)	0	1

Remaining list, next part
SMILES	NPYLR7 agonist max-min	NPYLR7 agonist
CN1CC[C@]2(c3cccc(O)c3)Cc3nc4ccccc4cc3C[C@H]2C1	-1	0
O=C(c1ccc2c3c(cccc13)CC2)C1CCCN(Cc2ccoc2)C1 (configuration not stated)	-2	7
CCCCSC1=NN1c1nc(N)nc(C)c1CC	1	2
CCN(CC)P(=S)(c1nc2ccccc2n1CC)N(CC)CC	3	3
COc1ccc(C(=O)C2CCCN(Cc3ccn[nH]3)C2)cc1F (configuration not stated)	9	9
CCN=C1NC(c2ccccc2)=NP(=NCC)(NCC)N1 (configuration not stated)	-2	0
O=c1cccc2n1C[C@@H]1C[C@H]2CN(Cc2cc3n(n2)CCNC3)C1	17	18
CC(C)n1cnnc1CCN	-3	2
CCOC(=O)[C@@H]1[C@H]2c3ccccc3NC(=O)[C@H]2N(C(=O)COC)[C@@H]1c1ccccc1	8	0
CC(C)=CC(=O)Nc1ccc2[nH]cc(CCN3CCc4ccccc4C3)c2c1	40	25
COc1cc(OC)nc(N2CCN3CCN(C)CC3C2)n1 (configuration not stated)	-2	12
CSc1ccc(C(=O)C2CCCN(Cc3nc(C(C)C)cs3)C2)cc1 (configuration not stated)	9	7
Cc1cccc(-n2nc(C(C)(C)C)c3c2N(CC(=O)NCC2CCCO2)C(=O)CSC3c2cccc(Cl)c2)c1C (configuration not stated)	-8	-5
COc1ccccc1N1CCN(C2CCCN(C(=O)COc3ccc(Cl)cc3)C2)CC1 (configuration not stated)	26	20
CCC[C@@H]1CC2=CC(=O)CC[C@]2(C)[C@H]2CC[C@@]3(C)[C@@H](CC[C@@]3(O)CCC(=O)O)[C@H]12	-17	-13
CC(Cc1cccnc1)NCc1c(C(=O)N2CCCCCCC2)nc2ccc(Cl)cn12 (configuration not stated)	-7	-6
O=C1NCCN2CCCCCC12 (configuration not stated)	4	7
CCCNC(C)c1nc2ccccc2c(=O)n1-c1cccc(Cl)c1 (configuration not stated)	4	-5
CCCCCCCCCOc1ccc2[nH]cc(CCN)c2c1	-7	-2
O=C(NC(O)C(Cl)(Cl)Cl)NC(O)C(Cl)(Cl)Cl (configuration not stated)	-30	-16
CC1CCCC(O)CCCCCc2cc(O)cc(O)c2C(=O)O1 (configuration not stated)	-27	-20
CCCCCNC(C)c1nc2ccccc2c(=O)n1-c1ccccc1Cl (configuration not stated)	4	-5
CC(C)=CC(=O)Nc1ccc2[nH]cc(CCN3CCOCC3)c2c1	6	1
COc1ccc(C(=O)C2CCCN(CCn3cc(Cl)cn3)C2)cc1F (configuration not stated)	2	6
COc1c(CC=C(C)C)c2c(c3oc(=O)c(-c4ccc(O)cc4)c(O)c13)C=CC(C)(C)O2	-11	-4
N#Cc1cnn2c(C(F)(F)F)cc(-c3cccs3)nc12	-3	0
CCc1ccc(N2C(=O)CC(=O)NC2=S)cc1	3	9
CN(C)c1ccc(P(=O)(N(C)C)N(C)C)cc1	-9	-4
COc1ccc2[nH]c3c(c2c1)CCNC3	1	1
N#CC(C#N)=Cc1ccc2c(c1)OCCO2	-16	-7
Cc1ccc(C(=O)Nc2ccc(N3CCC(NC(C)Cc4cccnc4)CC3)cc2)c(C)c1 (configuration not stated)	11	21
COC(=O)c1ccc(CN2CCC3(CC2)C(=O)NCN3c2ccccc2)o1	-22	-17
N#Cc1ccccc1NC(=O)c1cccn(Cc2c(F)cccc2Cl)c1=O	8	17
O=C(c1nn(Cc2ccc(S(=O)(=O)N3CCOCC3)cc2)c2ccccc12)N1CCN(C(=O)C2CCCO2)CC1 (configuration not stated)	21	15
COC[C@]12CN(C=O)C3[C@@H]4[C@H](OC)C1[C@]3(C1CC3(O)C(OC)C(O)C4(OC(C)=O)C1C3OC(=O)c1ccccc1)[C@@H](OC)C[C@H]2O (some centres not stated)	-14	-10
Cc1cc(C)cc(NC(=O)c2cc3cccnc3n(Cc3ccccc3F)c2=O)c1	5	13
O=S(=O)(c1ccc(Br)cc1)N1CCN(CCOC(c2ccccc2)c2cccc(C(F)(F)F)c2)CC1 (configuration not stated)	2	4
FC(F)(F)c1cccc(-c2cccc3c2CCNC3)n1	2	4
Cc1nn(Cc2ccc(F)cc2)c(Cl)c1C(=O)O	8	10
CCOC(=O)[C@H]1CN(C(=O)COC(C)=O)[C@]2(C)C(=O)N(CC3CC3)c3ccccc3[C@H]12	10	3
CC1(C)N=C(c2cccnc2)N(O)C1(O)c1ccccc1 (configuration not stated)	-22	-17
CCCN(CCC)CP(=O)(OCC)OCC	-14	-7
CN(CCC(N)CC(=O)N[C@H]1C=CC(n2ccc(N)nc2=O)O[C@@H]1C(=O)O)C(=N)N (some centres not stated)	-11	-5
CC(C)C(C(=O)Nc1ccc(Cl)nn1)N1CCCC1=O (configuration not stated)	2	4
Cc1ccccc1-n1nc(-c2ccccc2)c2c1N(CC(=O)NC1CC1)C(=O)CSC2c1ccsc1 (configuration not stated)	10	14
OCC12COCN1COC2	-4	-2
COCc1nc(-c2cccc(CN3CCN(C(=O)Cc4ccsc4)CC3)c2)no1	-1	-6
Cc1cnc(CNC(=O)c2nn(Cc3ccc(OCc4ccccc4)cc3)c3ccccc23)cn1	21	20
COCCn1c(C(=O)Nc2nnc(C3CC3)s2)cc2ccccc21	-2	2
CCCCn1cc(C(=O)N2CC(C)OC(C)C2)c2cccnc21 (configuration not stated)	-1	-1
CCCNc1nc(SCCC)nc2c1cnn2CCN	-4	-3
CC1(C)C(c2ccccc2)=NC(c2cccnc2)=[N+]1[O-]	2	2
O=C(COc1ccccc1)N(CCN1CCOCC1)CC(=O)N(Cc1ccc(F)cc1)Cc1cccs1	0	-4
Clc1ccc(Cl)cc1	-8	-2
COCCNC(=O)C1CC=CCC1C(=O)N1CCC(C#N)(c2ccccc2)CC1 (configuration not stated)	-17	-8
COc1ccc(CN(C)C(=O)c2cn(C)c3ccccc23)cc1F	2	6
